P. yoelii liver: Plasmodium liver-stage growth inhibition, dose response, imaging, Malaria Box, P. yoelii, HepG2-A16-CD81EGFP (AID 602156) | P. yoelii liver stage in HepG2-A16-CD81EGFP, imaging; first-round cut-off not given here | calls after a first round at 10 µM; hits with a dose series show IC50 in µM | 5,700 compounds, 4.8% hits; in the data active means a potency from the dose series;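 further: infected cells exposed to compound for 48 hours before fixation; stained parasite area by imaging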
Starred values were filed as active, the others as inactive; i = inactive.

# | SMILES | P. yoelii liver
1 | O=C(NCCCCNc1ccnc2cc(Cl)ccc12)C1CCCCC1 | i
2 | Cc1cccc(NC(=O)c2sc3nc4c(c(-c5cccs5)c3c2N)CCCCC4)c1 | i
3 | CCCCNC(=O)C1CCC(CN(Cc2c(Cl)cccc2Cl)S(=O)(=O)c2ccc(Br)cc2)CC1 (centres undefined) | 0.12µM*
4 | CSCCC(C(=O)NCC(=O)O)N1C(=O)c2cc(NC(C)=O)ccc2NC(=O)[C@@H]1c1ccccc1 (some centres undefined) | i
5 | O=C(Nc1ccc(C2=NCCN2)cc1)c1cccc2c(C(=O)Nc3ccc(C4=NCCN4)cc3)cccc12 | i
6 | COc1cc(NC(C)CCCN(Cc2ccc(F)cc2)C(=O)CCc2ccccc2)c2ncccc2c1 (centres undefined) | i
7 | O=C(Nc1ccc2oc(-c3cccc4ccccc34)nc2c1)c1ccc([N+](=O)[O-])o1 | 0.072µM*
8 | O=C(NCCc1ccccc1)c1cnc(NCCCn2ccnc2)nc1NC1CCCC1 | i
9 | CCOC(=O)N1CCc2c(sc(NCc3ccc(C)o3)c2C(=O)Nc2ccc(OC)cc2OC)C1 | i
10 | CCCCCCOc1ccc(NC(=O)c2cccs2)cc1 | 0.14µM*

An excerpt from above in order of SMILES length, falling.
# | SMILES | P. yoelii liver
4 | CSCCC(C(=O)NCC(=O)O)N1C(=O)c2cc(NC(C)=O)ccc2NC(=O)[C@@H]1c1ccccc1 (some centres undefined) | i
9 | CCOC(=O)N1CCc2c(sc(NCc3ccc(C)o3)c2C(=O)Nc2ccc(OC)cc2OC)C1 | i
2 | Cc1cccc(NC(=O)c2sc3nc4c(c(-c5cccs5)c3c2N)CCCCC4)c1 | i
1 | O=C(NCCCCNc1ccnc2cc(Cl)ccc12)C1CCCCC1 | i

The listing picks up with the 4 entries that preceded the break.
# | SMILES | P. yoelii liver
7 | O=C(Nc1ccc2oc(-c3cccc4ccccc34)nc2c1)c1ccc([N+](=O)[O-])o1 | 0.072µM*
8 | O=C(NCCc1ccccc1)c1cnc(NCCCn2ccnc2)nc1NC1CCCC1 | i
9 | CCOC(=O)N1CCc2c(sc(NCc3ccc(C)o3)c2C(=O)Nc2ccc(OC)cc2OC)C1 | i
10 | CCCCCCOc1ccc(NC(=O)c2cccs2)cc1 | 0.14µM*
11 | Oc1ccc(-c2ccc3c(c2)OCO3)cc1CNC1CCN(Cc2ccccc2)CC1 | i
12 | O=C1C2C(C(=O)N1c1cccc3ccccc13)C1C=CC2C12CC2 (centres undefined) | i
13 | O=C(NCc1ccccc1)c1cnc(NCCCn2ccnc2)nc1Nc1ccccc1 | i
14 | Cc1ccc(-n2c(SCc3ccc(F)cc3)nnc2C(Cc2ccccc2)NC(=O)NC(C)(C)C)cc1 (centres undefined) | i
15 | CC1CN(C(=O)C(Cl)(Cl)Cl)C(C)CN1C(=O)C(Cl)(Cl)Cl (centres undefined) | i
16 | COc1ccc(-c2ccc(C(=O)N(C)Cc3cscn3)c(N3CCC(N4CCc5ccccc5C4)CC3)n2)cc1 | i
17 | CCOC(=O)c1c(CC)nc(-c2ccccc2)nc1C(=O)N1CCC(C)CC1 | i
18 | O=C(/C=C/c1ccc(-c2cccc([N+](=O)[O-])c2)o1)Nc1nccs1 | i
19 | CCN1C(=CC=Cc2sc3ccccc3[n+]2CC)Sc2ccccc21 | i
20 | Nc1cc(-c2cccs2)[nH]n1 | i

3 consecutive entries out of the list so far, quoted:
# | SMILES | P. yoelii liver
18 | O=C(/C=C/c1ccc(-c2cccc([N+](=O)[O-])c2)o1)Nc1nccs1 | i
19 | CCN1C(=CC=Cc2sc3ccccc3[n+]2CC)Sc2ccccc21 | i
20 | Nc1cc(-c2cccs2)[nH]n1 | i

(list continues)
# | SMILES | P. yoelii liver
21 | CCC(Oc1ccc(C(C)(C)CC)cc1C(C)(C)CC)C(=O)Nc1ccc(Cl)c([N+](=O)[O-])c1 (centres undefined) | i
22 | C[n+]1ccccc1C=Cc1ccc(Br)cc1 | i
23 | O=[N+]([O-])c1ccc(-c2nc3ccccc3n2-c2cc(-c3ccccc3)nn2-c2ccccc2)cc1 | i
24 | Cc1nnc(SCC(=O)NCc2ccco2)n1-c1ccc(F)cc1 | i
25 | CCCN(CC(=O)Nc1cc(C(C)(C)C)nn1-c1cccc(C)c1)C(=O)c1cccc([N+](=O)[O-])c1 | i
26 | COc1ccccc1N1CCN(c2ccc(NC(=O)/C=C/c3ccc([N+](=O)[O-])cc3)cc2C(=O)NCCCN(C)C)CC1 | i
27 | O=C(COC(c1cccs1)c1cccnc1Cl)N1CCN(C(=O)Nc2ccccc2)CC1 (centres undefined) | i
28 | CCN(CC)CCN1C(=O)c2ccccc2NC1c1ccc(N(C)C)cc1 (centres undefined) | i
29 | c1ccc(CCCNc2ccnc3cc4ccccc4cc23)cc1 | i
30 | CCCCCCCCCC(=O)N(C)CCCNc1ccnc2cc(Cl)ccc12 | i
31 | Nc1nc(N)c2c(OCc3ccc(C(F)(F)F)cc3)cccc2n1 | i
32 | CCc1nc2nc(C)cc(Nc3ccc(C)c(F)c3)n2n1 | i

The list is partial; count on the stated rates, not on these rows.
